# Ecoli growth: inhibitors of Escherichia coli growth | OD600 absorbance (test concentration not listed) | actives 0.21% (n = 330,000) | OD600, 23 h; stronger effect = lower value;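 active = OD600 absorbance below the run mean of sample wells minus 3.6 SD, in any replicate, cut at about 0.56 in these data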;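 also: stock transfer was 300 nL into about 60 µL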
# Vif A3G: inhibitors of Vif binding to APOBEC3G peptide, primary screen, biochemical, TR-FRET, GST-Vif 1-94, biotin-A3G peptide, dose response retest (AID 1117319); TR-FRET GST-Vif / biotin-A3G peptide binding; higher % means a stronger effect; test concentration not given here; strong numbers were not always called active; inhibition, %; hits with a dose series show IC50 in µM; actives 0.57% (n = 260,000);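 active = above the screen mean plus three standard deviations and confirmed in dose response; inconclusive = results disagree or hit not tested in dose response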;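 also: Vif residues 1-94 fused to GST binding biotinylated APOBEC3G peptide 110-148; 0% = full assay without inhibitor and 100% = GST in place of GST-Vif; retest series ran down from 100 µM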
# LANA-H2B inh: blocks KSHV LANA binding to histone H2A/H2B. Q9QR71. cell-free LANA-H2A/H2B peptide, fluorescence polarization. inhibition, % (test concentration not listed). actives 0.6% (n = 320,000); in the data active = inhibition mostly above about 10%, no sharp cut-off; inactive = mostly below about 6.7%;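 also: stock transfer was 7.5 nL into about 10 µL; 0% = median of vehicle wells and 100% = median of positive control wells; one replicate is shown; the record names a cut of 25% in any replicate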
# Target sequence (Q9QR71 whole entry, looked up): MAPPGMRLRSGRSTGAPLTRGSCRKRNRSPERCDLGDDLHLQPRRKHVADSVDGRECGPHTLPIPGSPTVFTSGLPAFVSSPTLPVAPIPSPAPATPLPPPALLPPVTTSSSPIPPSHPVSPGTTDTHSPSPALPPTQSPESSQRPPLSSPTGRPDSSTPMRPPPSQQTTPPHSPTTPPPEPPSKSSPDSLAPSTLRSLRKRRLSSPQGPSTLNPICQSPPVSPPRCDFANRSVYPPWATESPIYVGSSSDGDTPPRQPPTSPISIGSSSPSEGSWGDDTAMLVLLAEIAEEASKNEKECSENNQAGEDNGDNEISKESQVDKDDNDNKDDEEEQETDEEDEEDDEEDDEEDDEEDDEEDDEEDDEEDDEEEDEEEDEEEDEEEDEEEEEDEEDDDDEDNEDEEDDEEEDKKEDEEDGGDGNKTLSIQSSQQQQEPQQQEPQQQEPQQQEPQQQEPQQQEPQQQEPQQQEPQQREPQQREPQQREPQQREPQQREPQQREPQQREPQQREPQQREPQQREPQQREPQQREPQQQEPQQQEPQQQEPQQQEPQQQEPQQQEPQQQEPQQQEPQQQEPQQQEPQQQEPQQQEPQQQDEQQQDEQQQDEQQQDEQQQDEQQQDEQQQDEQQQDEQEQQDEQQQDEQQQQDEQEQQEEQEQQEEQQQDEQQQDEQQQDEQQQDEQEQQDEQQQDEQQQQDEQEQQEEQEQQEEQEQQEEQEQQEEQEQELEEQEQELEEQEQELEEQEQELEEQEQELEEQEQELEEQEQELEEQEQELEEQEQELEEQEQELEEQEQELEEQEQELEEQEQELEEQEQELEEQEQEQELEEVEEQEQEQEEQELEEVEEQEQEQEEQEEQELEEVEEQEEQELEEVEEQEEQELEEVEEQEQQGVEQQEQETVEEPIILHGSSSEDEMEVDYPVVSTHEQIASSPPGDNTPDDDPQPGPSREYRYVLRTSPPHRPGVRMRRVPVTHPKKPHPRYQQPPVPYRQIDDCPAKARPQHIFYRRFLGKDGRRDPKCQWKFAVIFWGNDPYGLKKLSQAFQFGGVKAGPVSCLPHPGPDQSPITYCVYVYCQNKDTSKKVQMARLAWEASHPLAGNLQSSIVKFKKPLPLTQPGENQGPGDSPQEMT
# UCH37 inh: blocks the human deubiquitinase UCH37; Q9Y5K5; purified proteasome/UCH37, Ub-AMC cleavage fluorescence; inhibition, % (no concentration beside the values); actives 0.33% (n = 330,000); AID 588478;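 active = mean of two replicates above 20%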;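 also: 0% = compound-free wells with enzyme and 100% = wells lacking proteasome; stock transfer was 100 nL into about 20 µL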
#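 Signal – fluorescence, ex 355 nm, em 460 nm · System – Proteasome-bound UCH37 · Input – 0.15 nM proteasome as dispensed · Timing – 30 min preincubation with enzyme, 25 min cleavage at room temperature · Read-out basis – percent inhibition of cleavage signal versus uninhibited and no-proteasome wells · Medium – Tris-HCl pH 7.4 with ATP-MgCl2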
# Beta2AR agonist: agonists of human beta-2 adrenergic receptor inducing internalization | P07550 | Am2.2-beta2AR cells, FAP receptor internalization, flow cytometry; reference of the scale not given here | response, % (concentration not given with the values) | actives 0.43% (n = 340,000) | AID 504454;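 active = response above a set limit, near 3 SD of response in nonfluorescent compounds, cut at about 42% in these data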;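 also: stock transfer was 100 nL into about 11 µL; a reference agonist was the positive control; negative values mostly stem from fluorescent compounds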
# HNF4A DNA FP: change in binding of human HNF4 alpha to DNA; P41235; HNF4a-FITC DNA binding, fluorescence polarization, 1 h; activity change, % at 10 µM; actives 0.3% (n = 360,000); AID 1224865; in the data active = activity change above about 30%, passing the limit was not always enough;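 also: controls were the assay level and a saturating level of protein; the project sought stronger binding though the title names inhibitors; some compounds called inactive have numbers as strong as hits; positive values seem to mean higher polarization but the record does not say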
# Bfl-1 A1 inh: inhibitors of the anti-apoptotic protein A1, read as caspase activation; caspase activation, % (concentration not given with the values); actives 0.066% (n = 330,000); MEF A1-2A-BIM cells, Caspase-Glo 3/7 luminescence, 3 h; percent of clofoctol response, vehicle zero;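 active = over half of replicate activation scores above 10%, or exactly half above 10 with the replicate mean above 10; inconclusive = replicate mean below 10 yet half the replicates above 10; inactive = over half of replicates below 10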;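 also: wells of about 30 µL received 50 nL stock; many hits fall short of the cut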
# * hit, by the source's call; ? = inconclusive; · = not tested or not shown.
SMILES,Ecoli growth,Vif A3G,LANA-H2B inh,UCH37 inh,Beta2AR agonist,HNF4A DNA FP,Bfl-1 A1 inh
CCc1ccc(Nc2n[n+](-c3ccccc3)c(-c3cccc(C)c3)s2)cc1,·,·,-1.4,0.8,1,-0.7,-3.5
COc1cc(C(=O)NCc2ccc(C(=O)NCC(OC)OC)cc2)cc(OC)c1OC,0.7,-5%,-1.0,-0.9,0,-0.3,0.6
CCCCNC(=O)C1CCC(CNS(=O)(=O)c2ccc(NC(C)=O)cc2)CC1 (stereo unspecified),0.68,-3%,7.5,5.4,4,-1.0,0.2
O=C(CC1Sc2ccccc2NC1=O)NCc1cccc(Cl)c1 (stereo unspecified),0.72,0%,-2.4,3.1,0,-2.6,0.7
Cc1cccc(-c2sc(Nc3ccccc3)n[n+]2-c2ccc(F)cc2)c1,·,·,3.7,-0.4,-1,2.2,-0.8
N#Cc1c(-c2ccccc2)nc(-c2ccccc2)nc1N1CCOCC1,0.75,-19%,3.8,0.2,-6,-0.7,0.1
COc1ccc(/C=C(\NC(=O)c2ccccc2)C(=O)N2CCN(C)CC2)cc1OC,0.7,·,0.9,4.1,-4,1.0,0.3
Cc1ccc(C2(C)NC(=O)N(CC(=O)Nc3ccccc3N3CCCCC3)C2=O)cc1 (stereo unspecified),0.76,-10%,3.8,3.3,-7,0.3,0.8
COc1ccccc1C1=NOC(Cn2c(=O)c3c(ncn3C)n(C)c2=O)C1 (stereo unspecified),0.73,21%,-0.6,-0.2,-6,-2.1,-0.5
O=C(c1cccc(Cl)c1)N1CCN(Cc2ccc3c(c2)OCO3)CC1,0.64,·,7.0,2.8,6,-0.1,0.1
CC(=O)Nc1ccc(OCC(O)Cn2cncn2)cc1 (stereo unspecified),0.6,3%,-1.7,1.1,-4,-1.0,-0.5
O=Cc1c(C(=O)O)n(CC(=O)O)c2ccccc12,0.67,·,-4.3,2.0,1,-5.6,0.8
Cc1ccc2[nH]c(-c3ccccc3)c(CN(C)C)c(=O)c2c1,0.67,-6%,-1.2,3.3,-13,-0.7,0.7
N#C/C(=C\C=C\c1ccccc1)C(=O)NCc1cccnc1,0.75,·,5.9,13,0,0.7,1.4
CCN(CC)CCn1c(C)nc2ccccc21,0.66,1%,-0.8,-0.5,6,-1.8,0.6
N#Cc1c2ncn(CC(=O)c3ccc(Br)cc3)c(=O)c2c2n1CCC2,0.81,-29%,-0.6,2.9,2,1.4,0.2
O=C(CN1C(=O)NC2(CCCC2)C1=O)Nc1nc2ccc(F)cc2s1,0.69,-3%,-1.6,2.1,12,2.9,0.9
CCCc1cc(=O)[nH]c(/N=C(/NC(=O)C(C)N2C(=O)c3ccccc3C2=O)Nc2ccccc2)n1 (stereo unspecified),·,-5%,3.0,·,-5,-2.1,-0.3
CN(C)C(=O)CSc1nc2ccccc2n1CC(=O)N1CCN(c2ccccc2)CC1,0.71,1%,6.4,5.8,-1,-3.3,-0.6
Cc1ccc(NCc2ccncc2)c(Br)c1,0.7,7%,-4.8,2.3,-2,0.7,0.9
Cc1ccc(/C=N/NC(=O)CN2CCN(Cc3ccccc3)CC2)o1,·,0%,0.2,·,-2,-3.3,-0.2
CCC(C)(C)n1nnnc1CN1CCc2ccccc21,0.74,12%,-0.4,2.4,3,0.6,0.5
COC(=O)c1ccc2c(=O)n(CCN3CCOCC3)c(SCC(=O)c3ccccc3)nc2c1,0.73,8%,1.7,1.3,22,-2.0,-0.1
Cc1c(-c2ccc(Cl)cc2)[n+](=O)c(-c2ccccc2)cn1[O-],0.65,16%,-0.1,3.4,-9,-2.8,0.0
CCc1cccc(OCCOCCN2CCCC2)c1,0.73,3%,-0.8,6.2,-5,1.5,-1.1
Cc1ccc(S(=O)(=O)/N=C(/NNC(=O)c2cccc(Cl)c2)c2ccccc2)cc1,0.67,·,-3.7,0.9,3,-0.3,-4.2
Cc1ccc(-c2n[nH]c(=S)n2C)cc1,0.74,-3%,·,0.9,-8,-2.4,·
CC(C)Cn1cnc2c(SCc3ccccn3)nc(N)nc21,0.62,2%,·,1.0,-5,3.1,·
CN1CCN(CC#CCn2c3ccccc3c3ccccc32)CC1,0.65,23%,9.3,2.0,13,6.1,0.7
Cc1ccc(NC(=O)CC2SC(=Nc3ccc(O)cc3)NC2=O)cc1 (stereo unspecified),0.66,-13%,-2.1,1.6,2,2.3,-1.4
COc1ccccc1N/C(N)=N/c1nc(C)cc(C)n1,0.68,-5%,1.5,5.1,-11,-3.1,-0.1
COc1ccc(OCC(=O)Nc2ccccc2N2CCN(C)CC2)cc1,0.68,·,-3.5,3.9,-4,0.1,1.0
COc1ccc(N(CC(=O)N/N=C/c2ccc3c(c2)OCO3)S(=O)(=O)c2ccc(NC(C)=O)cc2)cc1,·,6%,-8.0,·,3,2.8,2.3
COC(=O)C(NC(=O)CCc1nnc2ccc(N3CCC(C)CC3)nn12)C(C)C (stereo unspecified),0.64,-5%,-0.5,3.9,6,-7.1,0.8
Cc1ccccc1OCC(=O)Nc1ccccc1N1CCOCC1,0.76,14%,3.3,-4.9,-6,2.8,-0.1
CC(=O)NS(=O)(=O)c1ccc(NC(=O)c2oc3c(Cl)cccc3c2C)cc1,0.7,·,1.3,-0.9,·,·,0.4
CN(c1ccccc1)c1nc(N)c([N+](=O)[O-])c(N2CCCC2)n1,0.68,-8%,-3.6,6.9,7,2.3,0.6
COc1ccc(NC(=O)CN(C)C(=O)CCc2c[nH]c3ccccc23)cc1,0.69,·,1.5,0.8,2,-4.8,0.8
CCN(CC)CCNC(=O)c1cc(Sc2nnc(C)s2)nc2ccccc12,0.68,-3%,5.4,-4.6,-15,-2.9,1.6
CC(=O)Nc1ccc(NC(=O)C(C)OC(=O)CC23CC4CC(CC(Br)(C4)C2)C3)cc1 (stereo unspecified),0.73,69%,0.5,1.4,4,11,0.0
COc1cc(OC)c(C(=O)OCC(=O)c2cc(C)n(CC3CCCO3)c2C)cc1OC (stereo unspecified),0.7,-7%,-3.2,5.2,0,1.6,0.2
NC(=O)c1sc2nc3c(cc2c1N)CCC3,0.68,8%,-2.2,-5.6,-6,-3.7,-2.7
Cn1c(=O)cc(OCCCC(=O)NCc2ccccn2)c2ccccc21,0.65,8%,5.5,2.8,5,0.6,1.0
CCOC(=O)c1cc(C(C)=O)c(=O)[nH]c1C,0.67,8%,-4.3,3.6,1,0.7,0.7
COc1ccccc1-n1c2c(cc(C(=O)N3CCC(C)CC3)c1=O)C(=O)CC(C)(C)C2,0.71,26%,1.2,4.6,5,-0.6,-1.1
COc1ccccc1CNC(=O)C1CC(=O)N(c2ccc(C)c(C)c2)C1 (stereo unspecified),0.69,1%,-2.6,-1.1,0,-0.4,1.5
Cc1ccc(Cn2c(=O)n(CCC(=O)NCc3ccc4c(c3)OCO4)c(=O)c3ccccc32)cc1,0.7,-4%,4.7,1.9,-7,3.4,-1.0
O=C(CCCN1C(=O)C2CC=CCC2C1=O)Nc1ccccc1F (stereo unspecified),0.73,·,3.5,4.5,-1,-1.9,0.2
CCN(c1ccccc1)S(=O)(=O)c1cccc(C(=O)NCC2(N(C)C)CCCCC2)c1,0.66,-4%,3.8,-0.3,-3,-2.3,0.4
CCCn1c(=O)c(C(=O)Nc2cccc(C)c2)c(O)c2ccccc21,0.72,·,-6.1,-16,-3,3.4,-3.1
O=C(c1ccc(CSCc2ccccc2F)o1)N1CCN(c2ccc(N3CCOCC3)nn2)CC1,0.68,4%,-0.4,-152,-3,3.6,?
COc1ccc(C(=O)NCCCNC(=O)c2cnccn2)cc1,0.67,·,0.2,2.0,-2,-1.1,0.1
COc1ccc(N2CCN(C(=O)[C@H](C)N3C(=O)C4CC=CCC4C3=O)CC2)cc1 (stereo partly specified),0.66,-2%,2.0,3.6,-1,1.5,1.2
O=C(CCN1C(=O)/C(=C/c2cccs2)SC1=S)Nc1ccc(O)cc1,0.69,·,-3.6,7.5,-6,19,-0.3
N#Cc1c2c(c(Nc3ccc(O)cc3)n3c1nc1ccccc13)CCC2,0.74,?,0.1,2.4,-19,-1.7,1.3
COc1cc(-c2nc3ccccc3nc2-c2ccc(O)c(OC)c2)ccc1O,0.69,·,-3.8,-5.1,-3,2.7,0.4
CCOC(=O)C1=C(N)OC2=C(C(=O)CCC2)C1c1cccnc1 (stereo unspecified),0.73,6%,-1.7,3.5,-1,-4.0,1.9
O=C(NCc1ccco1)C12CC3CC(C1)CC(C(=O)NCc1ccco1)(C3)C2,0.66,3%,2.8,-0.1,-2,0.2,0.4
CC(C)NC(=O)CSc1nc2ccccc2c(=O)n1CCCOC(C)C,0.66,-3%,4.6,1.6,-2,-1.6,?
COC(=O)c1cc2sccc2n1Cc1nc(-c2cccc(Cl)c2)oc1C,0.76,-5%,-5.1,5.2,0,0.3,0.9

# Structures above that have two or more sulfur atoms (2):
SMILES,Ecoli growth,Vif A3G,LANA-H2B inh,UCH37 inh,Beta2AR agonist,HNF4A DNA FP,Bfl-1 A1 inh
CCN(CC)CCNC(=O)c1cc(Sc2nnc(C)s2)nc2ccccc12,0.68,-3%,5.4,-4.6,-15,-2.9,1.6
O=C(CCN1C(=O)/C(=C/c2cccs2)SC1=S)Nc1ccc(O)cc1,0.69,·,-3.6,7.5,-6,19,-0.3

# Further structures follow.
SMILES,Ecoli growth,Vif A3G,LANA-H2B inh,UCH37 inh,Beta2AR agonist,HNF4A DNA FP,Bfl-1 A1 inh
COc1ccc(NC(=O)C2CCCN(S(C)(=O)=O)C2)c(OC)c1 (stereo unspecified),0.66,·,1.6,1.4,7,3.1,0.5
O=C(NCCCN1CCCC1=O)Nc1ccccc1Cl,0.63,2%,1.1,-0.6,-5,-3.0,1.8
O=C(NC1=NCCCCC1)c1cccc2ccccc12,0.7,2%,-0.6,-7.1,3,-0.4,1.1
NC1=NC(=O)/C(=C\c2ccc(-c3ccc(Cl)cc3)o2)S1,·,·,3.3,-0.6,2,1.2,-0.5
CC(C)C(NC(=O)c1ccc(F)cc1)C(=O)N1CCC1 (stereo unspecified),0.66,-5%,-9.7,2.4,-5,3.1,0.2
CCCCn1c(N)c(N(CCC(C)C)C(=O)c2c(C)noc2C)c(=O)[nH]c1=O,0.7,-2%,1.5,0.0,-1,3.2,0.2
Cc1cc(Nc2ccc(Br)cc2F)n2ncnc2n1,0.71,-8%,3.7,5.9,-2,1.8,-0.1
COc1ccccc1/C=c1\sc2nc(-c3ccco3)nn2c1=O,·,31%,3.5,·,5,-13,0.1
Cc1cc(-c2ccccc2)nc(N(C)NC(=O)C(C)(C)C)c1S(C)(=O)=O,0.72,7%,-7.4,4.7,-11,4.5,-0.7
CCCCCC(O)(CCN1CCCCC1)c1ccc(OCC)cc1 (stereo unspecified),0.66,14%,1.1,1.3,22,1.7,-0.5
CCOC(=O)CCC(NC(=O)c1ccccc1C(=O)NC(CCC(=O)OCC)C(=O)OCC)C(=O)OCC (stereo unspecified),0.68,-3%,2.7,3.2,6,-0.2,-0.2
COc1ccc(N2CCN(C(=O)CCCCn3c(=O)[nH]c4ccsc4c3=O)CC2)cc1,0.68,-7%,3.2,-0.4,-1,-1.4,1.5
CCOC(=O)Cc1cnc(NC(=O)CSc2nc3ncnc(N)c3[nH]2)s1,0.64,15%,1.9,-0.8,2,-6.1,-0.4

# Exported tab-delimited: three of the compounds above.
SMILES	Ecoli growth	Vif A3G	LANA-H2B inh	UCH37 inh	Beta2AR agonist	HNF4A DNA FP	Bfl-1 A1 inh
O=C(NCCCN1CCCC1=O)Nc1ccccc1Cl	0.63	2%	1.1	-0.6	-5	-3.0	1.8
O=C(NC1=NCCCCC1)c1cccc2ccccc12	0.7	2%	-0.6	-7.1	3	-0.4	1.1
NC1=NC(=O)/C(=C\c2ccc(-c3ccc(Cl)cc3)o2)S1	·	·	3.3	-0.6	2	1.2	-0.5
